Assay outcomes (PubChem)
MT1-MMP act inh: MT1-MMP (human) activation inhibition; P50281; HT1080 RFP-PRO-GFP cells, GFP/RFP ratio fluorescence, overnight; percent of plate control window, DMSO zero; GFP/RFP ratio change, % at 20 µM; 360,000 tested, 0.061% active;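 active = GFP/RFP ratio change of at least 30% with cell ATP level not reduced by more than half and red fluorescence within 50% of control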; note: strong numbers were not always called active
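Assay system: HT1080 RFP-PRO-GFP cells. Benchmarks: DMSO vehicle wells and RFP-L50D-GFP reporter cell wells. Times: overnight cell settling, then overnight compound exposure, 37 °C, 5% CO2. Compound: 20 µM single dose, 1% DMSO. Read-out basis: GFP/RFP fluorescence ratio.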
Yeast UUG start: alters start codon recognition fidelity in yeast. S. cerevisiae UUG-firefly luciferase reporter, luminescence/redox ratio. activity score, % at 18.7 µM. 350,000 tested, 0.13% active;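 active = replicate mean at a twofold rise or more, about +100% in these data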;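 note: firefly luciferase made from a UUG start codon reports start codon fidelity; reporter light over untreated wells divided by growth signal over untreated wells; some hits fall short of that in this replicate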
eIF4H inh: inhibitors of RNA binding by human eIF4H | Q15056 | eIF4H fluorescence polarization binding assay | inhibition, % at 35 µM | 290,000 tested, 0.94% active;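 active = 50% or more with normal probe brightness, or confirmed in later tests; about a fifth of its hits are not listed in these tables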;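 note: calls also rest on retests at 20 µM and on dose response follow-up; 0% = protein and probe with vehicle and 100% = probe without protein; strong numbers were not always called active; many hits fall short of the cut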
CSC inhib: blocks cancer stem cells; cancer stem cell-like cells viability, luminescence; inhibition, % at 7.5 µM; 300,000 tested, 1.1% active;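 active = mean at 75% or more and at least half the replicates too; tested in HMLE shEcad cells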;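 note: 0% = median of negative and 100% = median of positive control wells; the first replicate is given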
Env fusion inh: blocks HIV Env-driven cell-cell fusion; HeLa-JRFL Env/CEM21 cell fusion, luciferase; inhibition, % at 12.3 µM; 360,000 tested, 1.1% active;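 active = mean replicate inhibition score of at least 50 and every replicate individually at or above 50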;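 note: 0% = plate neutral controls and 100% = maraviroc near 300 nM; one replicate is shown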
PABP polyA inh: PABP-poly(A) binding inhibition; inhibition, % at 35 µM; 290,000 tested, 1% active; AID 2014; PABP-poly(A) RNA binding, fluorescence polarization;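 active = 50% or more with normal probe brightness, or confirmed in later tests; about a fifth of its hits are not listed in these tables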;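 note: calls also rest on retests at 20 µM and on dose response follow-up; controls were probe without protein and protein plus probe with vehicle; some compounds called inactive have numbers as strong as hits; many hits fall short of the cut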
Target sequence (P11940 whole entry, looked up): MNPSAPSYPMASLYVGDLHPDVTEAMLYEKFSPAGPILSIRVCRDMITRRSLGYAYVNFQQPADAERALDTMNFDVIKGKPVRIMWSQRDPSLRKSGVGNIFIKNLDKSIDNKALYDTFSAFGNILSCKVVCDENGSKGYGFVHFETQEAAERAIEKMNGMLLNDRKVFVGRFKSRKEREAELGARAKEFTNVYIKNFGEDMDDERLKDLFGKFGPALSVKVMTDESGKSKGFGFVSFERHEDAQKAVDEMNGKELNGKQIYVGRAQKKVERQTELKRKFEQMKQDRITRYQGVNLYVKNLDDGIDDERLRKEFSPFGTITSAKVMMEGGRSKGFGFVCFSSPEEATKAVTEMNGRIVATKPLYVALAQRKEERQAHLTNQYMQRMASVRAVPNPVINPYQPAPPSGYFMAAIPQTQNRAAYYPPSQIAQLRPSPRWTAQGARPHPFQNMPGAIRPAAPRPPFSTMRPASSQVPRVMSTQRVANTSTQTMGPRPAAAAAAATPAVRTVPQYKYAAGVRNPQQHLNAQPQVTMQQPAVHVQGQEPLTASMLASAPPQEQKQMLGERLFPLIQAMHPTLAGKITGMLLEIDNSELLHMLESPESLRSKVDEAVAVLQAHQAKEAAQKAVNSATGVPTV
Rce1 inhib: yeast Ras-converting enzyme inhibition. Q03530. 290,000 tested, 0.27% active. calls only. yeast membranes, quenched prenylated peptide cleavage fluorescence. AID 2563;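 active = fall in fluorescence gain of 50% or more versus controls, with final raw signal at or below 3038400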;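 note: plate controls were neutral control wells for no effect and wells lacking membranes for full effect; tested at 10 µM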
eIF4H inh retest: second read-out of eIF4H inh, no call of its own (marks repeat the call); inhibition, %; compound at 20 µM; confirmation average;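 mean of two retest wells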
PABP polyA inh retest: also measured in PABP polyA inh; calls as there; inhibition, %; compound at 20 µM; confirmation repeats;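 mean of two retest wells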
MT1-MMP act inh RFP: also measured in MT1-MMP act inh; calls as there; RFP signal change, %; measured here: RFP expression control read;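 0 = vehicle wells; hits needed this value within 50% of zero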
Active calls of the source: *; i = inactive; / = no result given.

SMILES	MT1-MMP act inh	MT1-MMP act inh RFP	Yeast UUG start	eIF4H inh	CSC inhib	Env fusion inh	PABP polyA inh	Rce1 inhib	others
CC1CCN(CCCNC(=O)C2CCN(S(=O)(=O)N3CCC4(CC3)OCCO4)CC2)CC1	1.8	3.2	52.2	7.2	-6.2	5.3	-2.3	i
CC[C@H](C)[C@H](NC(N)=O)C(=O)Nc1ccc(S(=O)(=O)NC(C)C)cc1	-10.0	0.8	-10.2	3.3	-7.7	10.1	-5.7	i
O=C(c1ccccc1)c1ccc(C(=O)O)c(C(=O)O)c1	0.5	-2.4	-20.3	/	/	-12.4	/	/
Cn1nnnc1SCC(=O)NCc1cccs1	-4.0	2.6	-11.8	0.5	-11.9	-3.1	7.9	i
O=C(NN=C1CCCC1)c1ccccc1O	-5.3	-3.2	0.6	11.3	-12.1	4.2	-7.4	i
O=C(Nc1ccccc1)Nc1ccccc1C(=O)NCC1CC1	14.4	3.2	/	-4.4	-13.8	-11.8	6.1	i
COc1ccc(CNC(=O)c2ccc3c(c2)NC(=O)C(C)S3)cc1 (stereo not drawn)	-1.2	0.0	-6.9	1.3	/	-7.5	-5.1	i
Brc1cc(Cc2nnc(-c3ccccc3)o2)c(Br)s1	-0.4	-0.4	/	-7.3	1.5	6.7	7.7	i
CN(C(=O)COC(=O)C1CCN(S(=O)(=O)c2c(Cl)cccc2Cl)CC1)C1CCS(=O)(=O)C1 (stereo not drawn)	-2.6	1.9	-3.1	/	13.2	-1.9	/	i
O=C(NCCc1c[nH]c2ccccc12)C1Cc2ccccc2CN1C(=O)c1ccco1 (stereo not drawn)	-1.7	0.1	9.1	7.5	-7.3	-8.4	-6.2	i
CCC(C)(C)NC(=O)CN(C(=O)CNS(=O)(=O)c1ccc(C)cc1)c1ccc2c(c1)OCCO2	0.1	-2.1	9.2	4.8	17.4	/	1.0	i
COCCNC(=O)CCCn1c(=O)c2cc(OC)c(OC)cc2n(CC(=O)NCCC2=CCCCC2)c1=O	1.6	3.5	/	-5.4	-3.2	-3.8	30.1	i
C=CCn1c(O)c(CN2CCN(Cc3ccccc3)CC2)c(C)c(C#N)c1=O	-9.4	9.7	1.4	126.5*	10.8	/	119.5	i	eIF4H inh retest=106.5*;PABP polyA inh retest=34.3
CCC1CCC(C(=O)NNC(=O)OC)CC1 (stereo not drawn)	5.3	4.7	-4.1	-6.7	-15.5	13.5	6.8	i
Cn1c(N2CCN(S(=O)(=O)c3ccc(Cl)cc3)CC2)nc2ccccc21	-2.9	-11.1	-20.9	0.5	-0.7	13.6	1.7	i

Next section, overlapping the part above by 2 compounds.
SMILES	MT1-MMP act inh	MT1-MMP act inh RFP	Yeast UUG start	eIF4H inh	CSC inhib	Env fusion inh	PABP polyA inh	Rce1 inhib	others
CCC1CCC(C(=O)NNC(=O)OC)CC1 (stereo not drawn)	5.3	4.7	-4.1	-6.7	-15.5	13.5	6.8	i
Cn1c(N2CCN(S(=O)(=O)c3ccc(Cl)cc3)CC2)nc2ccccc21	-2.9	-11.1	-20.9	0.5	-0.7	13.6	1.7	i
CCc1ccc(-c2cc3c(=O)n(CC(=O)NCCCN4CCC(Cc5ccccc5)CC4)nc(C)n3n2)cc1	-11.3	-0.5	-20.4	-31.2	-18.8	0.7	-4.9	i
O=C(NCCC(c1ccccc1)c1ccccc1)c1cnccn1	0.2	0.6	-9.2	-3.9	-5.8	2.9	-12.6	i
O=C(NC(=O)c1ccccc1)Nc1ccc(-c2cnco2)cc1	1.2	-2.0	-15.7	-1.7	0.5	-14.1	8.6	i
O=C(C[C@@H]1C/C=C\C[C@H](NC(=O)OCC2c3ccccc3-c3ccccc32)C(=O)OC[C@H]2CCCN2C1=O)N[C@@H](CO)Cc1ccccc1	-2.6	-4.8	3.1	/	-9.6	-190.7	/	/
COC(=O)C1(C)CCc2cc(OC)ccc2C1=O (stereo not drawn)	-4.5	-3.2	-4.6	-1.1	11.6	-4.9	-2.4	i
Cc1ccc(S(=O)(=O)N2CCN(C(=O)c3cccs3)CC2)cc1C	-7.7	-1.9	2.7	-7.1	-8.5	5.2	14.1	i
COc1cc(Cc2nccc3cc(OC)c(OC)cc23)c(S(=O)(=O)O)cc1OC	2.5	2.2	-7.8	6.9	-13.1	-18.4	-2.4	i
N#C/C(=C\c1cn(CC(=O)N2CCCCC2)c2ccccc12)C(=O)NCc1ccc2c(c1)OCO2	-0.5	2.8	-28.9	62.2*	/	-20.3	82.9*	i
O=C(Nc1ccc(NC(=O)c2ccc(Cl)cc2Cl)cc1)c1ccc2c(c1)OCO2	2.4	4.0	-13.8	-0.1	17.2	-12.0	6.2	i
Oc1ccc(N=Cc2ccc(OCc3ccccc3)cc2)cc1	11.4	9.0	-10.3	94.8*	5.7	-31.0	58.5*	i	eIF4H inh retest=84.8*;PABP polyA inh retest=62.1*
Cc1cc(/C=C(/C#N)C(=O)O)c(C)n1-c1cccc2ccccc12	5.2	-2.7	3.6	0.1	2.9	-10.0	10.1	i
COC(=O)CCCNC(=O)c1ccc2[nH]c(C)c(C)c2c1	0.3	0.0	15.2	0.7	-1.0	-6.1	1.2	i
O=c1cc(Cn2ccnc2)c2cc(O)ccc2o1	-4.0	1.6	-6.1	2.7	-4.5	2.6	-1.4	i
COCCNC(=O)Cn1nc(-c2ccc(C)cc2)ccc1=O	-1.3	1.9	-3.9	-13.0	-6.0	/	-8.9	i
O=C(CSc1ccc([N+](=O)[O-])cn1)Nc1ccc2c(c1)OCCO2	2.0	5.1	/	-7.1	-9.2	-3.8	15.1	i

Random excerpt: 5 compounds from above.
SMILES	MT1-MMP act inh	MT1-MMP act inh RFP	Yeast UUG start	eIF4H inh	CSC inhib	Env fusion inh	PABP polyA inh	Rce1 inhib	others
Cc1cc(/C=C(/C#N)C(=O)O)c(C)n1-c1cccc2ccccc12	5.2	-2.7	3.6	0.1	2.9	-10.0	10.1	i
O=C(NCCC(c1ccccc1)c1ccccc1)c1cnccn1	0.2	0.6	-9.2	-3.9	-5.8	2.9	-12.6	i
N#C/C(=C\c1cn(CC(=O)N2CCCCC2)c2ccccc12)C(=O)NCc1ccc2c(c1)OCO2	-0.5	2.8	-28.9	62.2*	/	-20.3	82.9*	i
O=C(Nc1ccc(NC(=O)c2ccc(Cl)cc2Cl)cc1)c1ccc2c(c1)OCO2	2.4	4.0	-13.8	-0.1	17.2	-12.0	6.2	i
O=C(C[C@@H]1C/C=C\C[C@H](NC(=O)OCC2c3ccccc3-c3ccccc32)C(=O)OC[C@H]2CCCN2C1=O)N[C@@H](CO)Cc1ccccc1	-2.6	-4.8	3.1	/	-9.6	-190.7	/	/

(more compounds)
SMILES	MT1-MMP act inh	MT1-MMP act inh RFP	Yeast UUG start	eIF4H inh	CSC inhib	Env fusion inh	PABP polyA inh	Rce1 inhib	others
CCCCn1nnc(NC(=O)c2ccc([N+](=O)[O-])cc2Cl)n1	9.2	2.8	0.3	-9.4	-3.3	3.2	-3.6	i
COC(=O)c1ccc(S(=O)(=O)NCc2ccc(S(N)(=O)=O)cc2)o1	0.2	-0.7	/	-9.6	-13.5	5.3	-5.6	i
O=C(OCc1ccccc1)/C(=C/c1ccc(Cl)cc1)NC(=O)c1ccccc1Cl	-0.8	3.1	-12.5	5.4	8.4	/	3.3	i
CCc1sc(NC(C)=O)nc1-c1ccccc1	0.5	-2.9	3.8	-10.3	-1.4	-20.1	5.5	i
Cc1c(Cl)cccc1NC(=O)Nc1ccc(C(=O)N2CCCC2)cc1	-1.4	-0.8	/	-13.2	5.4	-10.4	-3.8	i
c1ccc2c(c1)nnn1c3ccccc3nc21	/	/	/	2.1	12.9	/	-8.5	i
Cc1cc(=O)[nH]c(SCC(=O)Nc2nc(-c3ccccc3)c(-c3ccccc3)o2)n1	1.9	3.2	/	-3.4	-1.2	12.1	-0.3	i
O=C1OCC(c2ccccc2)=C1c1ccccc1	-0.9	-1.0	-11.4	2.1	1.8	-4.0	11.5	i
Cc1oc(-c2ccc(Cl)cc2)nc1CS(=O)CC(=O)NCc1cccs1 (stereo not drawn)	6.9	4.8	4.3	2.0	-1.8	9.1	0.9	i
CC(NC(=O)C(c1ccccc1)c1ccccc1)C(=O)O (stereo not drawn)	4.8	7.3	3.9	-10.4	-0.8	/	7.7	i
COc1cccc(C(=O)N[C@@H](C)C(=O)N2CCC3(CC2)NCCc2[nH]cnc23)c1	-1.2	2.7	-16.2	/	-16.7	-5.0	/	i
Cc1cc(NC(=O)COC(=O)c2cc([N+](=O)[O-])ccc2N2CCOCC2)ccc1Br	-6.5	-26.6	-16.9	/	25.4	0.7	/	i
O=C(NC1CCCC1)c1ccc2nc[nH]c2c1	-7.2	-1.5	-26.6	0.9	-1.2	/	2.3	i
CN(C(=O)C1CCN(S(=O)(=O)c2ccccc2)CC1)c1c(N)n(Cc2ccccc2)c(=O)[nH]c1=O	-2.0	2.1	7.3	/	-2.9	5.3	/	i
CCOc1cc(S(=O)(=O)Nc2ncn[nH]2)ccc1Br	2.2	6.3	-11.7	-8.2	-10.9	-36.6	8.3	i
O=[N+]([O-])c1sccc1CS(=O)(=O)c1ccccc1	0.5	3.6	-13.3	0.2	-16.1	15.4	-1.2	i
CC(=O)Nc1ccc(Oc2sc(C(=O)c3ccccc3)c(N)c2C#N)cc1	-5.9	-12.9	-39.2	1.6	35.0	/	2.5	i
COc1ccccc1N(C)S(=O)(=O)c1ccc(C(=O)N(C)Cc2ccc(OC(F)F)cc2)cc1	-2.0	-14.5	-12.2	/	/	4.4	/	/
CCC(C(=O)NCc1ccc(F)cc1)N(CCc1ccccc1)C(=O)c1snc(C(N)=O)c1N (stereo not drawn)	-3.4	-3.9	-3.5	-10.3	-10.9	44.0	2.0	i
Cc1c(C(C)NC(=O)Nc2ccc(F)cc2F)cnn1C (stereo not drawn)	0.3	2.9	-21.0	1.1	-7.5	-66.1	8.9	i
CCN(CC)S(=O)(=O)c1cc(NC(=O)CCc2c(C)noc2C)ccc1C	3.1	-8.1	-12.1	/	14.2	11.8	/	/
Cc1ccc(C(=O)N2CCN(c3ccccc3F)CC2)cc1S(=O)(=O)N1CCOCC1	2.4	0.0	/	-1.3	6.3	-5.8	2.7	i
CCC1CCCCN1CCCNC(=O)C(C)n1nc(C)c2sc3ccccc3c2c1=O (stereo not drawn)	-3.1	-1.8	-15.6	-13.5	2.7	-0.4	-9.3	i
Cc1ccnc(NC(=O)CNC(=O)COc2ccccc2)c1	1.9	0.7	-14.4	/	-6.4	-28.5	/	i
CC(=O)Nc1c(C)cc(OCC(=O)O)cc1C	4.5	7.2	-26.8	-7.1	-14.5	2.5	6.6	i
CC(=O)c1ccc(NCCC(=O)c2ccccc2)cc1	1.8	-1.4	24.8	-5.6	0.6	-18.8	1.7	i
CCn1c2ccccc2c2nnc(SCC(N)=O)nc21	0.8	0.3	-18.6	-7.3	17.0	/	-2.9	i
CCCN1CCN(CCCNC(=O)c2ccc(NC(=O)C3=C(C)OCCS3)cc2)CC1	0.3	4.9	-8.6	1.6	-3.4	0.1	9.1	i
CCOc1ccccc1OCC(=O)Nc1cc(S(=O)(=O)N2CCCCC2)ccc1N1CCN(CC)CC1	-1.6	-1.8	2.2	/	2.1	6.2	/	i
CC1Cc2ccccc2N1C(=O)CSc1nnc(NC(=O)Cc2cccs2)s1 (stereo not drawn)	/	/	/	-5.0	-17.3	18.3	-10.7	i
Nc1ccc(-c2nnn(CC(=O)N3CCCCC3)n2)cc1	3.6	4.0	-16.9	-8.5	-4.7	-2.9	-3.2	i
COc1cc(C(=O)N2CCN(C(=O)c3cc(-c4ccccc4)n[nH]3)CC2)cc(OC)c1OC	-0.2	-1.5	19.0	-4.0	8.7	1.1	3.5	i
COc1cccc(C(c2nnnn2C(C)(C)C)N2CCN(C3CCCCC3)CC2)c1OC (stereo not drawn)	3.2	1.5	/	-1.3	/	/	-10.2	i
COc1ccc(CN(C)C(=O)C2CSC3(C)CCC(=O)N23)c(OC)c1 (stereo not drawn)	-2.8	4.5	-2.0	/	/	29.9	/	/
